# ClpP mod: qHTS Assay for Activators of ClpP; purified B. subtilis ClpP, FRET peptide cleavage, 20 min; 340,000 compounds, 1.9% hits; Potency, µM (doses to about 57.5 µM), without a hit: at the highest dose activity change, negative = active; active = well fitted falling curve with a large enough effect; inconclusive = small, poorly fitted or top-dose-only effect; inactive = no such curve, though single readings can be large or run the other way; note: the source files actives as falling curves though it sought activators and does not explain the sign; nearly all actives have a fitted effect of over 65% in size; many hits overshoot -100%
# Target sequence (P80244 whole entry, looked up): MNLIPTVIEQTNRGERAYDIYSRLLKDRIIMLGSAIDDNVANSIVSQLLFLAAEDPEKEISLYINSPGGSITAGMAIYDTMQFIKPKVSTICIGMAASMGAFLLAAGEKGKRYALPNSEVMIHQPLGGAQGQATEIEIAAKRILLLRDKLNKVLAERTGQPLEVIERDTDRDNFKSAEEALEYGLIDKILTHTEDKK
#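 Purified B. subtilis ClpP, 10 microg/mL final in Tris/HCl pH8 with KCl, BSA, glycerol and Tween-20, cleaved an Abz/nitrotyrosine-quenched decapeptide. Fluorescence (ex 320, em 430) was read at 0 and 20 min at room temperature. Delta was normalized to 5.8 microM ADEP and DMSO/no-enzyme controls.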
# * = called active by the depositor; ? = inconclusive. Potency is the fitted concentration of half-maximal effect. The list is partial; count on the stated rates, not on these rows.
molecule	ClpP mod
CCOC(=O)c1ccc(NC(=O)c2ccc3c(c2)c(C)c(C)n3Cc2ccc(F)cc2)cc1	18µM*
Cc1cccc2c(C(O)c3c[nH]c4c(C)cccc34)c[nH]c12	4.1%
CCN(C(=O)CSc1nc2ccccc2n1Cc1ccc(F)cc1Cl)c1ccccc1	-2.2%
CC1Cc2cc(S(=O)(=O)NCCc3ccc(Cl)cc3)ccc2N1C(=O)C1CCC1 (centres undefined)	-4.7%
CC1=C(C(=O)N2CCCCCC2)CC(CC(=O)NCCCN(C)C)C(=O)N1CCCN1CCCC1=O (centres undefined)	-0.3%
COC(=O)[C@]12CCCCC=C1N(CCc1ccc(OC)c(OC)c1)C(=O)[C@H](CC(=O)NCc1cccc3ccccc13)C2	-1.5%
COc1ccc(-c2cc(C(C)=O)c(C)n2CCC(=O)NCc2ccccc2OC)cc1	-2.3%
Cc1ccc(-c2nc(C)c(CCNC(=O)c3ccccc3Br)s2)cc1	4.2%
N#C/C(=C/c1ccc(Cl)cc1Cl)c1nc2ccccc2c(=O)[nH]1	0.5%
CCOc1ccc(OCC)c(NC(=O)c2nnn(CC(=O)Nc3ccc(C)cc3C)c2N)c1	0.4%

molecule	ClpP mod
CC(C)CCOc1ccc(CC(=O)NO)cc1	0.6%
COc1ccccc1N1CCN(c2cc(C)nc3c(-c4ccc(Cl)cc4)c(C)nn23)CC1	4.8%
COc1ccccc1CNC(=O)c1ccc2c(c1)CCN2S(=O)(=O)c1ccccc1	1.0%
CCc1ccc(C(=O)COC(=O)C(NC(=O)C2CCC(C)CC2)C(C)C)cc1 (centres undefined)	-2.6%
CCc1ccc(NC(=O)N2CCOc3ccc(Cl)cc32)cc1	-0.5%
CCOC(=O)c1cc(-c2ccccc2)n(CCCC(=O)Nc2cccc(C)c2C)c1C	-0.6%
CCC(=O)N1c2ccccc2CC1C(=O)NCc1cccc(C)c1 (centres undefined)	0.0%
COc1cccc(NC(=O)C2CCCN(S(=O)(=O)c3cn(C(C)C)cn3)C2)c1 (centres undefined)	2.4%
CCn1cc(C(=O)NCc2ccc(C)cc2)c(=O)c2cc(S(=O)(=O)N3CCc4ccccc4C3)ccc21	-2.7%
CCc1cccc(C)c1Nc1c(-c2ccc(N(C)C)cc2)nc2cnccn12	-13%

molecule	ClpP mod
CN(C)c1ccc(/C=C/c2nc3ccccc3s2)c(Cl)c1	0.4%
C[n+]1cccc(NC(=O)c2ccccc2)c1	0.0%
CCCc1cnc2c(c1SCC(=O)Nc1ccccc1F)c(=O)n(C)c(=O)n2C	-5.0%
O=C(NCc1ccc(F)cc1)C1CCCCN1S(=O)(=O)c1ccc(F)cc1 (centres undefined)	-2.0%
Cc1ccc(S(=O)(=O)Nc2ccc3nc(-c4cccc(Cl)c4)oc3c2)cc1	?
Cc1ccc2nc(-c3cccs3)c(Nc3c(C)cccc3C)n2c1	28µM*
Cc1cccc(NC(=O)c2sc3nc(-c4ccccc4)cn3c2C)c1C	-20%
CCCCN(CCCC)CCNC(=O)c1cc(=O)[nH]c2ccc(S(=O)(=O)N3CCCCCC3)cc12	-4.6%
Cc1nn(C)c2c1c(C(F)(F)F)cc(=O)n2C(C)C(=O)NCc1ccccc1Cl (centres undefined)	?
CCCCC1Cc2[nH]c(=S)[nH]c(=O)c2C(c2ccc(C(C)C)cc2)O1 (centres undefined)	0.5%

molecule	ClpP mod
CC(C)CCN1C(=O)c2ccccc2C1c1nnnn1C(C)C (centres undefined)	0.0%
CN(C)S(=O)(=O)c1ccc2c(c1)N(CC(=O)N1CCN(c3ccccc3F)CC1)CCS2	4.2%
Cc1ccc(C)c(NC(=O)CSc2nnc(-c3cc4occc4n3C)n2-c2ccccc2C)c1	-8.1%
CCOC(=O)c1c(S(=O)(=O)NCC(=O)N2CCN(c3cccc(Cl)c3)CC2)c(C)n(C)c1C	-0.1%
COc1ccc(-c2nc3ccc(NC(C)=O)cc3c(=O)n2Cc2cccc(Cl)c2)cc1COc1ccc(NC(C)=O)cc1	-24%
CCC(C)(C)NC(=O)C1CCN(S(=O)(=O)c2ccc3c(c2)CCCN3C(C)=O)CC1	-1.3%
Cc1ccc2c(c1)-c1onc(C(=O)N3CCN(c4cc(C)ccc4C)CC3)c1CO2	44%
CCCCOCCCNC(=O)C[C@@H]1C[C@@]2(C(=O)OCC)CCCC=C2N(Cc2ccco2)C1=O	1.5%
Cc1oc2c(C)c3oc(=O)c(CC(=O)N4CCCCC4)c(C)c3cc2c1C	-11%
CC(C)Sc1ncc(Cl)c(C(=O)Nc2ccc(S(=O)(=O)N3CCCCC3)cc2)n1	-1.1%

molecule	ClpP mod
Cc1sc2ccccc2[n+]1CCCCBr	-0.8%
Cc1cccc(CCNC(=O)c2ccc3c(c2)N(Cc2ccccc2F)C(=O)c2ccccc2S3)c1	-9.1%
CC(C)c1ccc(NC(=O)C2CCCN(S(=O)(=O)c3ccc4[nH]c(=O)ccc4c3)C2)cc1 (centres undefined)	-1.6%
COc1ccc(S(=O)(=O)Nc2cc3c(C(=O)OC(C)C)c(C)oc3c3ccccc23)cc1	-2.8%
CN(C(=O)CSc1nc2ccc(NC(=O)COc3ccc(F)cc3)cc2s1)c1ccccc1	-3.4%
Cn1c(=O)c2c(ncn2CC(=O)Nc2cccc(Cl)c2Cl)n(C)c1=O	0.1%
Cc1ccc(CNC(=O)CCCc2nnc3n(CC(C)C)c(=O)c4sccc4n23)cc1	-9.7%
COc1ccc(-c2cc(C(=O)Oc3cccc(C)c3C)c3ccccc3n2)cc1	4.3%
CCCc1c(-c2ccccc2F)ncn1CCc1ccccc1OC	0.9%
CCCCn1c(=O)nc2n(-c3ccc(Br)cc3)c3ccccc3cc-2c1=O	-30%

molecule	ClpP mod
CCN(CC)C(=O)C1=C(C)Nc2nc3ccccc3n2C1c1cccc(Cl)c1 (centres undefined)	-14%
O=C(NCCCN1CCN(c2ccc(F)cc2)CC1)c1sc2ncccc2c1-n1cccc1	-2.4%
CCC(=O)N1CCCc2cc(S(=O)(=O)N3CCC(C(=O)Nc4ccccc4CC)CC3)ccc21	-3.2%
Cc1ccc(NC(=O)Cn2c(=O)n(Cc3ccc4c(c3)OCO4)c(=O)c3ccccc32)cc1	7.7%
CCOC(=O)[C@]12CCC=C1N(Cc1ccc(Cl)cc1Cl)C(=O)[C@H](CC(=O)N1CCC(c3ccccc3)CC1)C2	2.2%
Cc1ccc(-c2noc(CN(C3CCCCC3)S(=O)(=O)c3ccc(Cl)cc3)n2)cc1	1.0%
Cc1ccc(Cc2cnc(NC(=O)c3ccc4c(c3)CC(c3ccccc3)OC4=O)s2)cc1 (centres undefined)	0.4%
COc1ccc(NC(=O)c2ccc3c(SCC(=O)O)c4c(nc3c2)CCC4)c(OC)c1	0.3%
O=C(NCCc1csc2nc(-c3ccccc3F)nn12)c1ccccc1C(F)(F)F	-0.6%
Cc1ccc(CNC(=O)c2nc(SCc3cccc(C)c3)ncc2Cl)cc1	-11%

molecule	ClpP mod
CCn1c2ccccc2c2cc(NC(=O)COc3cc(C)c(Cl)c(C)c3)ccc21	?
CCC(C(=O)NCc1cc(OC)ccc1OC)n1nc(C)c2sc3ccccc3c2c1=O (centres undefined)	77%
CCOc1ccccc1CNC(=O)C1CCN(c2nn3cc(-c4ccc(F)cc4)nc3s2)CC1	-1.8%
COCCN(Cc1ccc(C)c(Br)c1)S(=O)(=O)c1ccc2[nH]c(=O)ccc2c1	-6.7%
Cc1ccccc1NC(=O)c1nc(SCc2ccccc2F)ncc1Cl	-8.7%
Cc1ccc(C(C)C)c(OCCCn2c(=O)oc3ccc(C)cc32)c1	-1.3%
CCc1ccc(CNC(=O)c2sc3ncccc3c2-n2c(C)ccc2C)cc1	-6.6%
CCS(=O)(=O)N1CCC2(CC1)OC(=O)C(C)=C2C(=O)NCc1cccc(Cl)c1	-1.8%
COc1cccc(NC(=O)N(Cc2c[nH]c3ccccc23)C2CCCCCC2)c1	-2.6%
CCc1cccc(NC(c2ccccc2)c2nnc(-c3ccccc3F)o2)c1 (centres undefined)	-1.4%

molecule	ClpP mod
COc1cccc(C(=O)NCCNc2nc3cc(C)cc(C)c3cc2C#N)c1	-15%
O=C(C[n+]1csc2ccccc21)c1ccc(O)c(O)c1	-2.2%
CC[N+](C)(C)c1ccc(/C=C/c2ccc3ccccc3n2)cc1	-1.0%
O=S(=O)(NCCc1cn2ccsc2n1)c1ccc(Cl)cc1	-1.7%
Cc1cccc(NC(=O)C2CCCN(c3nc4ccccc4s3)C2)c1C (centres undefined)	-1.0%
Cc1c(-c2ccccc2)n(-c2ccccc2O)c2nc3c(c(=O)n(C)c(=O)n3C)n12	-1.5%
CCOc1ccc(-n2nc3ccc(NC(=O)COc4ccccc4C)cc3n2)cc1	4.9%
Cc1ccc2oc(=O)c3cnn(CC(=O)N4CCN(c5cccc(C(F)(F)F)c5)CC4)c3c2c1	22%
CCOc1ccc(NC(=O)c2oc3ccccc3c2NC(=O)C(C)Oc2ccccc2)cc1 (centres undefined)	?
CCCc1cc(=O)[nH]c2nnc(SCC(=O)Nc3ccc(OC)cc3)n12	-7.3%

molecule	ClpP mod
COC(=O)[C@]12CCCCC=C1N(Cc1ccc(Cl)cc1Cl)C(=O)[C@H](CC(=O)NCCC(C)C)C2	1.7%
COc1ccc(CCNc2nc(-c3ccccc3OC)cc(C(F)(F)F)n2)cc1OC	?
CCOc1ccc(CCn2c3c(c(=O)[nH]c2=O)C(NC(=O)c2ccccc2)(C(F)(F)F)C(=O)N3)cc1OCC (centres undefined)	-1.5%
O=C(COC(=O)c1ccccc1OCCOc1ccccc1)Nc1ccccc1Br	-7.8%
COc1cccc(Oc2nc3c(c(=O)n(Cc4ccccc4Cl)c(=O)n3C)n2C)c1	1.8%
Cc1cc(OC(C)C(=O)N(Cc2ccc(N(C)C)cc2)Cc2ccco2)ccc1Cl (centres undefined)	-6.3%
COc1ccccc1C(=O)NCCN1CCC(n2c(=O)[nH]c3ccccc32)CC1	-0.2%
Cc1cc(C)c(S(=O)(=O)NCC(c2ccc(N(C)C)cc2)N2CCOCC2)c(C)c1 (centres undefined)	-0.7%
COC(=O)[C@]12CCCCC=C1N(Cc1ccc3c(c1)OCO3)C(=O)[C@H](CC(=O)NCc1ccc(OC)c(OC)c1)C2	0.0%
Cc1nc2ccn(Cc3cccs3)c(=O)c2cc1C(=O)Nc1ccccc1	-27%

# 4 of the compounds above, with each value named:
> COC(=O)[C@]12CCCCC=C1N(Cc1ccc(Cl)cc1Cl)C(=O)[C@H](CC(=O)NCCC(C)C)C2
  ClpP mod: 1.7%

> COc1ccc(CCNc2nc(-c3ccccc3OC)cc(C(F)(F)F)n2)cc1OC
  ClpP mod: ?

> COc1cccc(Oc2nc3c(c(=O)n(Cc4ccccc4Cl)c(=O)n3C)n2C)c1
  ClpP mod: 1.8%

> Cc1nc2ccn(Cc3cccs3)c(=O)c2cc1C(=O)Nc1ccccc1
  ClpP mod: -27%

# (continued)
molecule	ClpP mod
Cc1ccccc1NC(=O)CN(C)S(=O)(=O)c1cccc2nsnc12	-1.9%
Cc1ccc(F)cc1NC(=O)COC(=O)c1ccc(S(C)(=O)=O)c([N+](=O)[O-])c1	-0.1%
COC(=O)c1cc(NC(=O)Cn2nc(-c3ccc(C)c(C)c3)ccc2=O)cc(C(=O)OC)c1	1.1%
CCOC(=O)c1cc2c(=O)n3ccccc3nc2n(C(C)C)c1=NC(=O)c1cc2ccccc2o1	3.9%
COc1ccc(C(CC(=O)Nc2ccc(Br)cn2)N2Cc3ccccc3C2=O)cc1 (centres undefined)	0.6%
COC(=O)c1c(SCC(=O)Nc2cc(F)ccc2F)[nH]c2ccc(C)cc2c1=O	-3.2%
Cc1ccc([C@@]2(OC(=O)c3ccccc3)C(=O)N(C(=O)OC(C)(C)C)c3ccccc32)cc1	1.5%
C[C@@H](c1ccccc1)N1C[C@@H](COCc2ccccc2)Oc2cc(N3CC[C@@H](O)C3)ccc2S1(=O)=O	-14%
Cc1ccc(Cl)cc1N(C)C(=O)c1noc2c1CCCCC2	-3.1%
COCCN1C(=O)CCC1(C)c1nnnn1Cc1ccccc1 (centres undefined)	1.1%

molecule	ClpP mod
CCOC(=O)c1c(S(=O)(=O)N2CCN(c3ccccc3OC)CC2)c(C)n(C)c1C	-1.4%
Cc1ccc(OCCNC(=O)CNC(=O)Cc2cccc3ccccc23)cc1	-1.5%
CCc1cccc(C)c1NS(=O)(=O)c1ccc(-c2cc(C)no2)s1	0.6%
COc1ccc(NC(=O)C(=O)NCC2(c3ccc(OC)c(OC)c3)CCCC2)cc1	0.0%
COc1ccccc1C(=O)Nc1c(C(=O)N2CCN(c3ccc(F)cc3)CC2)oc2ccccc12	0.5%
Cc1ccc(-c2cn3cccnc3n2)cc1NC(=O)C(C)(C)Oc1ccc(Cl)cc1	4.8%
C[C@H](NC(=O)OC(C)(C)C)[C@@H](O)c1ccco1	-1.5%
O=C(CCS(=O)(=O)c1nc(-c2ccc3c(c2)OCO3)cc(C(F)(F)F)n1)Nc1ccc(Br)cc1	?
COc1ccc(NS(=O)(=O)c2ccc3[nH]c4c(c3c2)CCCC4)cc1OC	-7.5%
Cc1ccc(C)c(S(=O)(=O)c2nnn3c2nc(NCc2ccc4c(c2)OCO4)c2sccc23)c1	?
CCOc1ccc(C(=O)Nc2nc(-c3ccc(Br)cc3)ns2)cc1	-0.5%
